VDR inh: blocks the human vitamin D receptor; Potency, µM, without a hit: max response, negative = inhibition, most hits filed as inhibitors; P11473; AID 504847; 400,000 compounds, 0.93% hits; VDR-SRC2-3 peptide fluorescence polarization, 2 h; active = well fitted inhibition curve with a large enough effect; inconclusive = small, poorly fitted or top-dose-only effect, or another doubt; inactive = no such curve, though single readings can be large or run the other way; note: series mostly up to about 120 µM
Target sequence (P11473 whole entry, looked up): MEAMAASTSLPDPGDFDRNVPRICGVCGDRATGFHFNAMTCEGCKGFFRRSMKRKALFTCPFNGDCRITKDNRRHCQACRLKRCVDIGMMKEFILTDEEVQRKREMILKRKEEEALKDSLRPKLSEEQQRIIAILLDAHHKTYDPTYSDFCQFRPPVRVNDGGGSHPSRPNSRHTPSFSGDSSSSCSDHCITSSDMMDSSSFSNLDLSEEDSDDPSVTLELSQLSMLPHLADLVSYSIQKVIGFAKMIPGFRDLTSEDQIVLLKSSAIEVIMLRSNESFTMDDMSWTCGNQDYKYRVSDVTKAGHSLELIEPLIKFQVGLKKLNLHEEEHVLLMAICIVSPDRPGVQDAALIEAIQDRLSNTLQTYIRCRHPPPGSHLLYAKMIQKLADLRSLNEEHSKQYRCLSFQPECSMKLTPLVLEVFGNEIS
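Reagent solutions, kept cold and dark, are dispensed first; compounds are then pinned in at 23 nl, plates briefly spun, and incubated 2 h at ambient temperature. Inhibition of VDR–SRC2-3 peptide binding is read by fluorescence polarization.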
Numbers without * were called inactive; ? = inconclusive; & = joins results of further samples; [ ] = remark or other dose. % is set by controls: 0 for no effect and ±100 for the full control effect; potency is the fitted concentration of half-maximal effect.

The first 7 entries as a preview:
Structure	VDR inh
CC(=O)c1c(O)c(C)c(O)c2c1OC1=CC(=O)C(C(C)=O)C(=O)[C@@]12C (stereo not given in full)	-13%
CC1CCCCC1NS(=O)(=O)c1ccc(S(=O)(=O)N2CCCC2)cc1 (stereo not given)	-10%
CCOC(=O)C1=C(CN2CCN(c3ccc(Cl)cc3)CC2)NC(=O)NC1c1ccc(F)cc1 (stereo not given)	2%
C/C(=N\NC(=O)CC(C)C)c1ccc(N2CCCCC2)cc1	-8%
CCSc1nnc(NC(=O)c2c(C)noc2C)s1	7%
O=C(NCCCn1ccnc1)Nc1cccc2ccccc12	3%
COc1ccc(NC(=O)NCc2ccc3c(c2)OCO3)cc1	3%

The listing, from the first entry:
Structure	VDR inh
CC(=O)c1c(O)c(C)c(O)c2c1OC1=CC(=O)C(C(C)=O)C(=O)[C@@]12C (stereo not given in full)	-13%
CC1CCCCC1NS(=O)(=O)c1ccc(S(=O)(=O)N2CCCC2)cc1 (stereo not given)	-10%
CCOC(=O)C1=C(CN2CCN(c3ccc(Cl)cc3)CC2)NC(=O)NC1c1ccc(F)cc1 (stereo not given)	2%
C/C(=N\NC(=O)CC(C)C)c1ccc(N2CCCCC2)cc1	-8%
CCSc1nnc(NC(=O)c2c(C)noc2C)s1	7%
O=C(NCCCn1ccnc1)Nc1cccc2ccccc12	3%
COc1ccc(NC(=O)NCc2ccc3c(c2)OCO3)cc1	3%
COC(=O)c1ccccc1NC(=O)c1c(NC(=O)c2ccco2)sc2c1CCC(C(C)(C)C)C2 (stereo not given)	8%
Cc1ncoc1C(=O)N1CCc2c([nH]c3ccccc23)C1C1CCCCC1 (stereo not given)	2%
FC(F)(F)c1cc(-c2ccccc2)nc(NCc2cccnc2)n1	-7%
CCOC(=O)c1ccccc1NC(=O)N[C@@H](C)C(=O)OC	-10%
Cc1cc(Cl)ccc1N1C(=O)CC(SCCC(=O)O)C1=O (stereo not given)	8%
Cc1cc(C)c(/C=C/c2onc(C)c2S(=O)(=O)N2CCC(C(=O)Nc3ccc(Cl)cc3C)CC2)c(C)c1	8%
N#Cc1cn(Cc2ccncc2)c(=O)[nH]c1=O	0%
O=C(Nc1ccccc1C(F)(F)F)N1CCC2(CC1)Oc1ccccc1C(=O)N2Cc1ccccc1F	-3%
CCCCNc1c(-c2cccc(-c3ccc(OC)cc3)c2)nc2ccc(C)cn12	-23%
Cc1cc(C)n(CCNC(=O)c2ccc3c(c2)OCO3)n1	5%
CCCCSc1nnc2[nH]c(=O)cc(N)n12	-2%
O=C(CCn1cccc1)Nc1cc(F)ccc1F	21%
COc1ccccc1S(=O)(=O)Nc1ccc2nc(C)sc2c1	12%
CCc1nccn1S(=O)(=O)c1ccc2ccccc2c1	12%
CCOC(=O)c1ccc(NC(=O)CN2C(=O)C(C)(C)c3ccccc32)cc1	8%
CC(C)Oc1ccc(CCC(=O)NNC(=O)c2ccccc2C(=O)O)cc1	9%
CC(C)c1ccc(S(=O)(=O)N2CCN(C(=O)CCNS(=O)(=O)c3ccccc3F)CC2)cc1	5%
Cc1cc(NS(=O)(=O)c2ccc(NC(=O)CCCOc3ccccc3C)cc2)no1	7%
COC(=O)c1ccc(/C=C2/SC(=S)N(CCCC(=O)Nc3ccccn3)C2=O)cc1	-16%
CCN(CC)C(=N)N1c2ccccc2CCC1C (stereo not given)	2%
O=C(OC1CCOC1=O)c1cc(-c2ccc(Cl)cc2)nc2ccccc12 (stereo not given)	11%
O=C(Nc1ccc(Cl)cc1)Nc1ccon1	-3%
Cc1ccc(Nc2nc(N/N=C/c3c[nH]c4ccccc34)nc(N3CCOCC3)n2)cc1	-19%
Cc1cc(C)c2c(N)c(C(=O)Nc3cccc(C)c3C)sc2n1	9%
CCSc1nnc(NC(=O)CCCOc2ccc(C)cc2)s1	-1%
CCn1cc(C(=O)NCCCOC(C)C)c(=O)c2cc(S(=O)(=O)N(C)C3CCCCC3)ccc21	6%
COc1ccc(C(=O)Nc2ccccc2C(=O)NCc2cccnc2)cc1	-16%
Cc1ccc2oc3c(SCc4nc5ccccc5[nH]4)nc(C)nc3c2c1	-8%
O=C(C[C@H]1C[C@H](C(=O)N2CCOCC2)[C@@]2(CCC3CCCC3)c3[nH]c4ccc(Cl)cc4c3CCN2C1=O)NCCCn1ccnc1	-12%
C=C(C)C(=O)Nc1cccc(C2=NOC3(C2)C[C@@H](C(N)=O)N(C(=O)c2cc([N+](=O)[O-])cc([N+](=O)[O-])c2C)C3)c1 (stereo not given in full)	-14%
O=C(Nc1nc2ccc(F)cc2s1)c1nc(SCc2ccccc2F)ncc1Cl	-3%
CCN(CC)c1ccc(C(=O)OCC(=O)NC(C)(C)C)cc1	15%
O=C(c1cc(-c2ccc(Cl)cc2)nc2ccccc12)N1CCOCC1	2%
Cc1ccc(S(=O)(=O)N(CC(=O)Nc2ccccc2C(=O)O)c2cccc(Cl)c2C)cc1	-28%
Cc1ccc(C(=O)ONC(=O)c2ccc(Cl)cc2)cc1[N+](=O)[O-]	-19%
COc1ccc(CNC(=O)c2ccc(Cn3cc(Br)cn3)o2)cc1	32%[activator]
Cn1c(CSc2nc3ccccc3s2)n[nH]c1=S	25%
Cc1cccc(Nc2n[nH]c(=S)s2)c1C	-78%
C[C@H]([C@H](O)c1ccccc1)N(C)C(=O)CN	7%
COc1ccccc1CC(=O)Nc1ccc(S(=O)(=O)N2CC(C)CC(C)C2)cc1 (stereo not given)	8%
CCCn1c(SCC(=O)Nc2cc(S(=O)(=O)N3CCOCC3)ccc2Cl)n[nH]c1=O	-11%
Cc1nn2c(-c3ccco3)nnc2c2ccccc12	-1%
CC1CCC2(CC1)N=C(N)Nc1nc3ccccc3n12 (stereo not given)	-2%
S=C(NCCc1ccccc1)Nc1ccccc1N1CCOCC1	-8%
CC1CCN(c2oc(-c3cccs3)nc2S(=O)(=O)c2ccc(Cl)cc2)CC1	?
COc1ccc(CNCc2cccc(Oc3ccccc3)c2)cc1	-12%
Cc1cc(N)nc(SCC(=O)N2C(C)CCCC2C)n1 (stereo not given)	6%
CCOC(=O)c1ccc(COC(=O)c2cc3ccccc3oc2=O)o1	3%
CCc1ccc(C(=O)NNC(=O)OC)cc1	?
Cc1oc(-c2ccc(Cl)cc2)nc1CSc1nc2ncccc2[nH]1	7%
Cc1ccccc1Nc1nnc(SCC(=O)NCC2CCCO2)s1 (stereo not given)	4%
COc1cccc(C(=O)COc2ccc(NC(=O)c3cccs3)cc2)c1	9%
COc1ccccc1-c1c(C)nn2c(N)c(-c3ccccc3)cnc12	4%

Continued.
molecule | VDR inh
CC(=O)Nc1ccc(S(=O)(=O)Nc2ccc3c(c2)n(C)c(=O)n3C)c(C)c1 | -11%&-11%
CCOC(=O)c1sc(=S)n(CC)c1NC(=O)c1ccccc1C | -17%
O=C(Cc1nc(-c2ccc(Br)s2)cs1)NCCN1CCOCC1 | -13%
Cc1cc(C(=O)OCc2nnc(-c3ccccc3)o2)c(C)n1-c1ccccc1 | 3%
CCN1C(=O)/C(=C/c2nc3ccccc3c(=O)n2-c2ccc(C)cc2)c2ccccc21 | -17%
COc1ccccc1NS(=O)(=O)c1ccc2c(c1)N(C(C)=O)CC(C)S2 (stereo not given) | -6%
Cc1ccc(NC(=O)Cn2nc(C)c(S(=O)(=O)N(C)C)c2C)cc1C | 0%
CCCCNC(=O)Cn1nc(N2CCN(c3ccccc3OC)CC2)ccc1=O | 5%
CCn1c2ccccc2c2c3ncc4cccn4c3ccc21 | ?
Cc1ccc(C(=O)OCC(=O)NCc2cccs2)s1 | 11%
CCOC(=O)C1CCCN(CC(O)COCc2ccccc2OC)C1 (stereo not given) | 13%
COc1ccc(N2CCN(CC(=O)N3CCC(C)CC3)CC2)cc1 | 8%
CCCC(=O)Nc1ccc(Sc2ccc([N+](=O)[O-])cc2)cc1 | 18%
COc1ccccc1-c1nnc(NC(=O)c2ccc(S(=O)(=O)N(C)CC3CCCO3)cc2)o1 (stereo not given) | -4%
Cc1c(CN2CCCC(C(=O)c3cccc(Cl)c3)C2)c(=O)n(-c2ccccc2)n1C (stereo not given) | -6%
Cc1ccc(Cl)cc1NC(=O)C(NS(=O)(=O)c1ccc2c(c1)CCC(=O)N2)c1ccccc1 (stereo not given) | 11%
CCCN1CCN(CCCNC(=O)C2CCCN(c3nnc(-n4cccc4)s3)C2)CC1 (stereo not given) | -8%
Cn1nnc(NC(=O)CSc2nnnn2-c2ccc(F)cc2)n1 | 2%
COc1ccccc1CC(=O)Nc1ccccc1O | 4%
CC(=O)Cn1nnc2sc3c(c2c1=O)CCC(C(C)(C)C)C3 (stereo not given) | -5%
CC1CCN(C(=O)C2CC(c3ccc(F)cc3)=NO2)CC1 (stereo not given) | 6%
COc1ccc(-c2nc3cnc(Oc4cccc(Cl)c4)nc3n(CCC#N)c2=O)cc1 | 2%
CC(=O)NC(CC(C)C)C(=O)NC(=O)NCc1ccccc1 (stereo not given) | 13%
CCOc1ccccc1C(=O)OCC(=O)Nc1ccc(OC(F)F)cc1 | -1%
CCNc1nc(NC(C)C)nc(NC(C)(C)C)n1 | -4%
COc1ccc(-c2c(C)oc3c(CN4CCN(C)CC4)c(O)ccc3c2=O)cc1 | -2%
COC(=O)CCC/C=C1/SCC(NC(=O)c2ccccc2)/C1=N/O (stereo not given) | -10%
CCC(=O)Nc1cc(C(=O)OC(C(=O)c2ccc(C)c(C)c2)c2ccccc2)ccc1C (stereo not given) | 21%
Cc1ccc(-n2c(=O)c3c(C)c(C)sc3n(CC(=O)c3ccc(Cl)cc3)c2=O)cc1C | 6%
Cc1cc(NCCO)c2ccccc2n1 | -10%
COc1ccc(OC)c(NC(=O)CSc2ccc3ccccc3c2)c1 | -2%
O=C(CSc1nnc(Cn2nnc3ccccc32)o1)Nc1cccc(Cl)c1 | -9%
OC[C@H]1O[C@@H](OC[C@H]2O[C@@H](O)[C@H](O)[C@@H](O)[C@@H]2O)[C@H](O)[C@@H](O)[C@@H]1O | 2%
CC12CN3CC(c4ccccc4)(CN(C1)C3c1ccc(O)cc1)C2=O (stereo not given) | -11%
Cc1nc2nc[nH]n2c(=O)c1NC(=O)c1cccc(OCC(C)C)c1 | 11%
CO/N=C/C(=N\Nc1ccc(OC)cc1)C(=O)c1ccc(F)cc1 | 1%
CC(C)Cc1ccc(S(=O)(=O)N2CCN(Cc3noc(CCC(=O)N4CCCCC4)n3)CC2)cc1 | 2%
O=C(Nc1ccc([N+](=O)[O-])cc1)C1CC12CCC2 (stereo not given) | 7%
CC1(C)C2CCC1(C(=O)O)c1nc3ccccc3nc12 (stereo not given) | -7%
CCc1nc2ccc(C(=O)N3CCN(c4cccc(C)c4C)CC3)cc2nc1CC | ?

For convenience, some entries already given:
molecule | VDR inh
CO/N=C/C(=N\Nc1ccc(OC)cc1)C(=O)c1ccc(F)cc1 | 1%
CC(C)Cc1ccc(S(=O)(=O)N2CCN(Cc3noc(CCC(=O)N4CCCCC4)n3)CC2)cc1 | 2%
O=C(Nc1ccc([N+](=O)[O-])cc1)C1CC12CCC2 (stereo not given) | 7%

(listing goes on)
molecule | VDR inh
CCOC(=O)C1CCN(C(=O)COc2ccc(N(C)S(=O)(=O)c3ccc(OCC)cc3)cc2)CC1 | -20%
COc1ccc(-c2csc(NC(=O)CSc3nnnn3C)n2)c(OC)c1 | 14%
CSCCC1NC(=O)N(CC(=O)N2CCc3ccccc3C2)C1=O (stereo not given) | 5%
COc1ccc(-c2c(-c3ccc4c(c3)OCO4)c3ccccc3n2C)cc1 | 6%
CCN(CC(=O)Nc1ccccc1C(=O)NC1CC1)Cc1cccs1 | 12%
O=C(COc1ccc(Br)cc1)NCC1COc2ccccc2O1 (stereo not given) | ?
COC(=O)c1cc(C(=O)NC(C)C2CC3CCC2C3)cc([N+](=O)[O-])c1 (stereo not given) | -3%
CC(OC(=O)CCC1CCCCC1)C(=O)Nc1ccc(S(N)(=O)=O)cc1 (stereo not given) | 10%
COC(=O)c1ccc(N=CC2=C(O)CC(c3ccccc3)CC2=O)cc1 (stereo not given) | -1%
CCOc1ccccc1NC(=O)c1sc2nc3n(c(=O)c2c1C)CCCCC3 | -1%
S=C(NC1CCCCC1)N1CCN(Cc2ccccc2Cl)CC1 | 1%
Cc1ccc(C(=O)NC(N2CCCC2)C(Cl)(Cl)Cl)cc1 (stereo not given) | 16%
O=C(C(Cc1ccccc1)N1C(=O)c2ccccc2C1=O)N1CCc2ccccc21 (stereo not given) | -3%
Cc1cccn2c(=O)c3cc(C#N)c(=O)n(-c4nnc(SCc5ccccc5F)s4)c3nc12 | 0%
CCc1nnc(NC(=O)c2ccc(S(=O)(=O)N(C)Cc3ccccc3)cc2)o1 | -10%
CC(C)c1nnc(NC(=O)C2CCCN2C(=O)Nc2ccccc2F)s1 (stereo not given) | -2%
O=C1C2C(c3ccccc3)C=CC(c3ccccc3)C2C(=O)N1c1ccncc1 (stereo not given) | 5%
COc1cccc(CN(C(=O)Cn2nnc(-c3ccccc3F)n2)C(C(=O)NC(C)(C)C)c2ccncc2)c1 (stereo not given) | 0%
Cc1nc2ncnn2c(N2CCN(c3cccc(C(F)(F)F)c3)CC2)c1C | 16%
Cc1cccc(C)c1NC(=O)Cn1c(=O)n(Cc2ccccc2Cl)c(=O)c2cccnc21 | -13%
CC(C)N(Cc1ccccc1)S(=O)(=O)c1ccc(N2CCCCS2(=O)=O)cc1 | 6%
O=C(Cn1ccn(-c2ccc(F)c(F)c2)c(=O)c1=O)NCc1ccccc1 | 17%

Compound activity as filed in PubChem.

Not all compounds are listed (hit frequency here may not be typical).
